Vaccinia mCherry: inhibitors of vaccinia virus infection (mCherry reporter signal); Vaccinia virus mCherry reporter infection, fluorescence; about a quarter of the inactives have no number; Potency, µM (doses to about 36.5 µM), for the others: at the top dose activity change, negative = inhibition, actives largely listed as inhibitors; actives 0.63% (n = 310,000); AID 720579; active = well fitted inhibition curve with a large enough effect; inconclusive = small, poorly fitted or top-dose-only effect; inactive = no such curve, though single readings can be large or run the other way; tested in A549 cells; further: nearly all actives have a fitted effect of over 35% in size; inactives centre near -10
VACV Venus inh: vaccinia inhibition (Venus reporter). AID 720580. Vaccinia virus Venus reporter expression, fluorescence. Potency, µM (highest dose often 36.5 µM), for inactives: at the top dose activity change, negative = inhibition, most hits filed as inhibitors. actives 0.46% (n = 330,000); active means well fitted inhibition curve with a large enough effect; inconclusive means small, poorly fitted or top-dose-only effect; inactive means no such curve, though single readings can be large or run the other way; tested in A549 cells; further: nearly all actives have a fitted effect of over 30% in size; inactives centre near -10
* = called active by the depositor; i = inactive; ? = inconclusive; . = no result given. On the % scale 0 is the no-effect control and ±100 the full control effect; potency means the concentration at half of the fitted maximal effect.

Values run as follows: Vaccinia mCherry, VACV Venus inh
[1] N#C/C(=C(\O)c1cc(Cl)sc1Cl)c1nc2ccccc2[nH]1
→ i, -16%
[2] CCn1nccc1C(=O)Nc1ccc(Cl)cn1
→ -13%, -11%
[3] COc1cc(C(=O)NCC2(N(C)C)CCCCC2)ccc1OCc1ccccc1
→ -11%, -2%
[4] CCOc1ccc(S(=O)(=O)N(CC(=O)NCc2cccnc2)c2ccc(F)cc2)cc1
→ 2%, 2%
[5] COc1ccc(NC(=O)CN2CCC(C(N)=O)(N3CCCCC3)CC2)cc1
→ i, -9%
[6] S=C(Nc1ccccc1)Nc1nccs1
→ -5%, -25%
[7] O=C(CCN1C(=O)/C(=C/c2ccccc2)SC1=S)NC1CCS(=O)(=O)C1 (centres undefined)
→ -8%, -6%
[8] O=C(O)C1C2CCC(C2)C1C(=O)NCc1ccco1 (centres undefined)
→ ., -7%
[9] CC(=O)c1cc(-c2ccc(F)cc2)n(CCC(=O)Nc2cccnc2)c1C
→ i, -19%
[10] O=C(NCCc1ccccc1)C(=O)NCCC1CCCCN1S(=O)(=O)c1cccs1 (centres undefined)
→ -26%, -24%
[11] CN1CCN(c2cc(-c3ccccc3C(F)(F)F)ncn2)CC1
→ 1%, 3%
[12] CN(C)c1ccc(NC(=O)CN2CCc3ccccc3C2)cc1
→ -24%, 0%
[13] O=C(Cn1cnc2c(nnn2Cc2ccccc2)c1=O)NCc1ccco1
→ -16%, 4%
[14] CCOc1ccc(NC(=O)Cn2cc(C(=O)c3ccc(CC)cc3)c(=O)c3cc4c(cc32)OCO4)cc1
→ 2%, -10%
[15] O=C(O)CN1C(=O)/C(=C\c2ccccc2OCc2ccccc2)SC1=S
→ -14%, -5%
[16] Cc1cccn2c(=O)c(/C=C(\C#N)C(=O)NC3CCS(=O)(=O)C3)c(N3CCC(C)CC3)nc12 (centres undefined)
→ i, -16%
[17] COc1cccc(-c2cc(C(=O)Nc3ccc(Br)c(C)c3)[nH]n2)c1
→ -2%, -17%
[18] CCOc1ccc(-n2c(SCC(=O)Nc3nccs3)nc3c(c2=O)SCC3)cc1
→ i, -13%
[19] COc1ccccc1C(=Cc1ccc([N+](=O)[O-])cc1)C(=O)O
→ i, -10%
[20] COc1ccc2ccccc2c1CNCc1ccc(C)cc1
→ -9%, 0%
[21] CC(=O)Nc1ccc(/C=C/c2ccncc2)cc1
→ -13%, 8%
[22] COCCN(C(=O)COC(=O)c1ccccc1Oc1ccccc1)c1c(N)n(Cc2ccccc2)c(=O)[nH]c1=O
→ -25%, -26%
[23] COc1ccc(-c2cn3ccsc3n2)cc1
→ -28%, -22%
[24] COc1ccc(NC(=O)N(C)C[C@@H]2OCc3cnnn3CCCC(=O)N([C@H](C)CO)C[C@@H]2C)cc1
→ -11%, -6%
[25] CSc1ccc(-c2cc(=O)c3ccccc3o2)cc1
→ -11%, -19%
[26] CC1Cc2ccccc2N1C(=O)c1ccc(N2CCCCC2)c([N+](=O)[O-])c1 (centres undefined)
→ -2%, -14%
[27] CC(=O)c1c2c3c(c(Br)ccc3n(C)c1=O)C(=O)c1ccccc1-2
→ i, 5%
[28] COc1cc(F)ccc1-c1csc(C(O)c2ccc(F)cc2)n1 (centres undefined)
→ -2%, -4%
[29] CC(=O)c1c(COC(=O)c2cccnc2)nc2ccccc2[n+]1[O-]
→ ., 5%
[30] COc1ccc(OCC(=O)Nc2c3c(nn2-c2ccc(OC)cc2)CS(=O)(=O)C3)cc1
→ i, -13%
[31] COc1ccc(C(=O)N/N=C2\CCc3ccccc32)cc1OC
→ ?, -5%
[32] CC(=O)c1cc(F)c(N2CCCC2)cc1C
→ ., -5%
[33] Cn1c(=O)[nH]c(=O)c2[nH]cnc21
→ -23%, -16%
[34] COc1ccc(-n2c(C)cc(C(=O)Cn3c(NCCO)nc4ccccc43)c2C)cc1
→ -3%, -24%
[35] CCOC(=O)CSc1nsc(SCC(=O)OCC)c1C#N
→ -3%, -10%
[36] Cc1cccc(OCC2=N/C(=C\N(C)C)C(=O)O2)c1
→ ., -6%
[37] Nc1n[nH]c(N)c1N=Nc1ccccc1F
→ -18%, -7%
[38] CCOC(=O)c1c(-c2ccccc2)csc1NC(=O)c1cc(=O)c2ccc(C)cc2o1
→ -18%, 1%
[39] CCOC(=O)NC1(Nc2ccc(C)cc2)Oc2ccccc2O1
→ -25%, -12%
[40] Cc1ccnc(NC(=S)NC(=O)/C=C/c2ccc(Cl)cc2)c1
→ -21%, -13%
[41] O=C1NC(=O)/C(=C\c2ccccc2Oc2ccc(F)c(F)c2)S1
→ ., -27%
[42] CCN(CC)S(=O)(=O)c1cccc(NC(=O)C2SC(=Nc3ccc(C)cc3C)C(C(=O)NC(C)COC)=C2N)c1 (centres undefined)
→ ?, -29%
[43] Cc1ccc(S(=O)(=O)N(C)C)cc1NC(=S)NC(C)CCCC(C)C (centres undefined)
→ -12%, -24%
[44] O=C(Cc1ccc2ccccc2c1)Nc1ccccc1Br
→ -10%, -5%
[45] CN(C)S(=O)(=O)c1ccc(C(=O)Nc2nnc(SCC(=O)N3CCOCC3)s2)cc1
→ -9%, -9%
[46] Cc1cccc(C(=O)Nc2ccc(N3CCN(c4ccc(F)cc4)CC3)c(C(=O)O)c2)c1
→ -4%, -2%
[47] O=C(c1ccccc1)c1sc(N2CCOCC2)nc1-c1ccccc1
→ i, -8%
[48] CC(=O)Nc1ccc(S(=O)(=O)N2CCN(S(=O)(=O)N3CCC(C)CC3)CC2)cc1
→ -15%, -13%
[49] CCc1ccccc1Nc1cc(C(=O)NC(C)c2ccccc2)c2ccccc2n1 (centres undefined)
→ -17%, -13%
[50] COC(=O)c1c(O)cc(C(C)(C)C)n(-c2ccc(F)cc2)c1=O
→ i, -19%

Carrying on:
Values run as follows: Vaccinia mCherry, VACV Venus inh
[51] O=C(CSc1nc2ccccc2[nH]1)Nc1cc(C(F)(F)F)ccc1N1CCOCC1
→ ?, ?
[52] O=C(c1cnn(C(=O)c2ccco2)c1)c1cc(Cl)cc(Cl)c1O
→ -17%, -2%
[53] COc1ccccc1N1CCN(C(=O)c2ccc(NS(=O)(=O)c3ccc(C)cc3)cc2)CC1
→ -16%, -19%
[54] Cc1cc(C(=O)OCC(=O)N2c3ccccc3NC(=O)C2(C)C)c(C)n1-c1ccccc1
→ ?, ?
[55] O=C(CCNC(=O)c1ccccc1Cl)Nc1nc2ccccc2s1
→ -15%, -16%
[56] O=C(NCc1nnnn1-c1ccc(F)c(F)c1)c1ccc2ccccc2c1
→ i, -15%
[57] CNC(=O)CN(C1CCCCC1)S(=O)(=O)c1ccc(F)cc1
→ -11%, -13%
[58] Fc1cc(F)cc(NC(=S)N2CCN(c3ncccn3)CC2)c1
→ -27%, -15%
[59] O=C(NCc1ccccc1Cl)c1ccccc1CCc1ccccc1
→ -5%, -19%
[60] O=C(CSc1n[nH]c(=O)[nH]c1=O)Nc1ccc(SC(F)F)cc1
→ -16%, -2%
[61] COc1c(Cl)cc(Cl)cc1C(=O)n1nc(C)cc1C
→ ., -6%
[62] Cc1ccc(SCC(=O)NNC(=O)c2ccccc2)c(C)c1
→ i, -9%
[63] COc1cc(-c2nnc(SCC(=O)NC3CCS(=O)(=O)C3)o2)cc(OC)c1OC (centres undefined)
→ -7%, -6%
[64] Cc1cc(C)cc(N(CC(=O)NCc2ccc(F)cc2)C(=O)CCC(=O)Nc2ccccn2)c1
→ -23%, -14%
[65] Cc1ccc2c(COC(=O)c3ccccc3F)cc(=O)oc2c1
→ i, -6%
[66] CC1=NN(C(N)=S)C(=O)C1N=Nc1c(C)cc(C)cc1C (centres undefined)
→ -11%, 7%
[67] CC1(C)CC(NC(=O)c2ccc(-c3ccc([N+](=O)[O-])cc3)o2)CC(C)(C)N1
→ ?, -29%
[68] CCCn1c(CCNc2nc(-c3ccc(OC)cc3)cs2)nc2ccccc21
→ ?, -29%
[69] CCc1nnc(NC(=O)CSc2nccn2-c2cccc(C)c2)s1
→ ?, -21%
[70] Cc1nc(C(F)(F)F)ccc1C(=O)Nc1ccccc1F
→ -12%, -10%
[71] CC(=O)C1=C(O)C(=O)OC1c1ccc(C)cc1 (centres undefined)
→ i, -5%
[72] Cc1cccc(C)c1NC(=O)CNC(=O)c1ccc(NS(=O)(=O)c2ccc3[nH]c(=O)[nH]c3c2)cc1
→ -12%, 3%
[73] CC1(C(=O)NS(=O)(=O)c2cccc(Cl)c2)CCN1C(=O)CCc1cccs1 (centres undefined)
→ 0%, -6%
[74] Oc1ccc2ccccc2c1C=NC12CN3CCN(CN(C3)C1)C2
→ i, -5%
[75] COc1ccc(CNC(=O)Cc2c(C)c3cc4c(C)coc4c(C)c3oc2=O)cc1
→ -5%, 1%
[76] Fc1ccccc1-c1nc(N2CCN(c3cccc(Cl)c3)CC2)c2ccccc2n1
→ -12%, -8%
[77] CCOC(=O)C1=C(C)N(C2CCCCC2)C(=O)C1
→ ., -16%
[78] Cc1ccc(C(=O)N2CC(C(=O)O)C2)cc1
→ 0%, 5%
[79] Cc1cc(O)cc2c1C1CCC3(C)C(O)CCC3C1C=C2 (centres undefined)
→ 4.5µM*, ?
[80] COC(=O)C1=C(c2ccccc2OCc2ccccc2)C[C@@H]2CC[C@H]1N2C(=O)NCc1ccccc1
→ i, ?

Arranged by SMILES length (lowest first): some entries from above.
Values run as follows: Vaccinia mCherry, VACV Venus inh
[78] Cc1ccc(C(=O)N2CC(C(=O)O)C2)cc1
→ 0%, 5%
[71] CC(=O)C1=C(O)C(=O)OC1c1ccc(C)cc1 (centres undefined)
→ i, -5%
[77] CCOC(=O)C1=C(C)N(C2CCCCC2)C(=O)C1
→ ., -16%
[61] COc1c(Cl)cc(Cl)cc1C(=O)n1nc(C)cc1C
→ ., -6%
[59] O=C(NCc1ccccc1Cl)c1ccccc1CCc1ccccc1
→ -5%, -19%
[79] Cc1cc(O)cc2c1C1CCC3(C)C(O)CCC3C1C=C2 (centres undefined)
→ 4.5µM*, ?
[65] Cc1ccc2c(COC(=O)c3ccccc3F)cc(=O)oc2c1
→ i, -6%
[69] CCc1nnc(NC(=O)CSc2nccn2-c2cccc(C)c2)s1
→ ?, -21%
[66] CC1=NN(C(N)=S)C(=O)C1N=Nc1c(C)cc(C)cc1C (centres undefined)
→ -11%, 7%
[68] CCCn1c(CCNc2nc(-c3ccc(OC)cc3)cs2)nc2ccccc21
→ ?, -29%
[60] O=C(CSc1n[nH]c(=O)[nH]c1=O)Nc1ccc(SC(F)F)cc1
→ -16%, -2%
[76] Fc1ccccc1-c1nc(N2CCN(c3cccc(Cl)c3)CC2)c2ccccc2n1
→ -12%, -8%
[73] CC1(C(=O)NS(=O)(=O)c2cccc(Cl)c2)CCN1C(=O)CCc1cccs1 (centres undefined)
→ 0%, -6%
[63] COc1cc(-c2nnc(SCC(=O)NC3CCS(=O)(=O)C3)o2)cc(OC)c1OC (centres undefined)
→ -7%, -6%
[64] Cc1cc(C)cc(N(CC(=O)NCc2ccc(F)cc2)C(=O)CCC(=O)Nc2ccccn2)c1
→ -23%, -14%
[67] CC1(C)CC(NC(=O)c2ccc(-c3ccc([N+](=O)[O-])cc3)o2)CC(C)(C)N1
→ ?, -29%
[80] COC(=O)C1=C(c2ccccc2OCc2ccccc2)C[C@@H]2CC[C@H]1N2C(=O)NCc1ccccc1
→ i, ?
[72] Cc1cccc(C)c1NC(=O)CNC(=O)c1ccc(NS(=O)(=O)c2ccc3[nH]c(=O)[nH]c3c2)cc1
→ -12%, 3%

Part of the list above, set out differently:
77	CCOC(=O)C1=C(C)N(C2CCCCC2)C(=O)C1
  Vaccinia mCherry = .
  VACV Venus inh = -16%
71	CC(=O)C1=C(O)C(=O)OC1c1ccc(C)cc1 (centres undefined)
  Vaccinia mCherry = i
  VACV Venus inh = -5%

Additional compounds follow.
Values run as follows: Vaccinia mCherry, VACV Venus inh
[81] CCC(CC)C(=O)Nc1cc(-c2ccccc2F)nn1-c1ccccc1
→ -4%, -13%
[82] CCC(=O)Nc1ccc(-c2nnc(SCc3ccc(C(=O)Nc4nccs4)cc3)n2CC)cc1
→ ., -16%
[83] CN(C)/C=C/C(=O)c1ccc2noc(-c3ccccc3)c2c1
→ -28%, -15%
[84] C[C@H](NC[C@H](O)CP(=O)(O)CC1CCCCC1)c1ccc(Cl)c(Cl)c1
→ -11%, 0%
[85] COc1ccc(-c2nc3ccccc3s2)cc1O
→ -21%, -16%
[86] Cc1ccc(Oc2c(C(F)(F)F)oc3c(CN4CCCCC4C)c(O)ccc3c2=O)cc1 (centres undefined)
→ -12%, 1%
[87] CN(C)CCNCc1ccc(OC2CCCC2)cc1
→ -9%, -6%
[88] COCCNC(=O)C1CCCN(C(=O)c2nc(C)oc2C)CC1 (centres undefined)
→ 8%, 12%
[89] COc1ccc(Cl)cc1S(=O)(=O)NCc1nc2nc(C)cc(C)n2n1
→ i, -4%
[90] O=C1OCCC/C1=C\c1ccc2c(c1)OCO2
→ -7%, -9%
[91] COc1cc(OC)cc(C(=O)NN2CCOCC2)c1
→ i, -15%
[92] Cc1cnc(NC(=O)c2cc3ccccc3o2)s1
→ i, -10%
[93] Cc1cccc(CNC(=O)CN2C(=O)C3CCCCN3c3ccc(C(=O)N4CCCC4)cc32)c1 (centres undefined)
→ -6%, -14%

Source: PubChem BioAssay
